# Screening data (PubChem)
# NPYLR7 agonist: activates Aedes aegypti NPYLR7 receptor; activation, % at 10 µM; HEK293T NPYLR7/Galpha15, GCaMP6s calcium fluorescence; 270,000 compounds, 0.15% hits; AID 1259423; in the data active means activation above about 40%;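 further: 0% = vehicle and 100% = reference agonist at the receptor; some compounds past the cut are filed as inactive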
# NPYLR7 agonist max-min: further read-out of NPYLR7 agonist, marked with its call; activation, %; measured here: Max-Min RFU normalised activation; some inactives read as strong as hits;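 span of the calcium signal over five minutes; 0% = vehicle and 100% = native peptide agonist; compound fluorescence can raise it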
# * = called active by the depositor; & = joins results of further samples. An excerpt; the hit share may differ from the screen's.
SMILES,NPYLR7 agonist,NPYLR7 agonist max-min
CC1=NNc2nc3c(c(=O)n(Cc4c(F)cccc4Cl)c(=O)n3C)n2C1C (centres undefined),-1,3
C1=C(c2ccccc2)C(c2ccccc2)C(c2ccccc2)O1 (centres undefined),8,2
CC(=O)N1CCC(C(=O)Nc2nccn2Cc2ccccc2)CC1,-22,-23
CCCS(=O)(=O)N1CCN(Cc2c(-c3ccc(F)cc3)nc3sccn23)CC1,2,-3
Cc1cccc(C)c1NC(=O)CNC(=O)c1cc(F)c(F)cc1Cl,0,-4
CC(C(=O)NC1CCCC1)N1CCC(O)(CN2CCCC2)CC1 (centres undefined),-2,14
COc1ccc(CCNC(=O)Cn2nc(-c3ccco3)oc2=O)cc1OC,1,1
CNC(=O)CN(C)C(=O)c1ccccc1C(=O)c1ccccc1,-3,0
CCc1ccc(S(=O)(=O)N2CCCC(c3nnc(-c4ccccc4F)s3)C2)s1 (centres undefined),-9,-8
CCN(CC)c1onc(-c2ccccc2)c1CN(CCC(C)C)CC(O)CN1CCOCC1 (centres undefined),13,13
Cc1ccc(C2CC(c3ccc(F)cc3)=NN2C(=O)CN2CCN(c3ccccc3F)CC2)cc1 (centres undefined),-9,-2
CC1CNC(=O)CCN1C(=O)CCCC(=O)c1ccccc1 (centres undefined),3,3
CCOC(=O)C1C(=O)C=C(c2cccs2)CC1c1cccc(OC)c1OC (centres undefined),17,21
N#Cc1ccc(C(=O)N2CCCN(c3nc4ccccc4nc3-c3ccccc3)CC2)cc1,3,1
O[C@@H]1CN(Cc2ccsc2)CC[C@H]1N1CCN(CCc2ccccc2)CC1,3,0
COCCOCC(=O)N1CCN(CC(OCc2ccc(C#N)cc2)c2cccc(N3CCCC3)c2)CC1 (centres undefined),3,-1
CN(C)Cc1ccc(-c2nc3cccc4c3n2CCNC4=O)cc1,-3,-7
CC(=O)Nc1ccc(NC(=O)CSc2nc(=O)n(N3CCN(C)CC3)c3c2CCCC3)cc1,-4,-10
Cc1nc(SCC(=O)N2CCNC2=O)c(C(N)=O)c(C)c1C,0,6
Cn1c(O)c(N=NC(=O)COc2cccc(Cl)c2)c2ccccc21,-2,-4

# Some values from the entries so far:
# NPYLR7 agonist with C1=C(c2ccccc2)C(c2ccccc2)C(c2ccccc2)O1 (centres undefined) is entered as 8
# NPYLR7 agonist with N#Cc1ccc(C(=O)N2CCCN(c3nc4ccccc4nc3-c3ccccc3)CC2)cc1 is entered as 3

# Following part.
SMILES,NPYLR7 agonist,NPYLR7 agonist max-min
C=CCOc1ccc(/C=N\Nc2nc(C)cc(COC)c2C#N)cc1OC,0,8
COc1cccc(CNC(=O)CCC2CCCN(C(=O)Cn3nc4ccccc4n3)C2)c1 (centres undefined),11,6
COC(=O)C[C@@H]1C(C)(C)[C@@H](OC(C)=O)[C@@H]2CC3=C4CC(=O)O[C@@H](c5ccoc5)[C@]4(C)CCC3[C@@]1(C)C2=O (some centres undefined),5,5
CC(NCCN(C)C)C(=O)C12CC3CC(CC(C3)C1)C2 (centres undefined),21,10
Cc1c(CCNS(=O)(=O)c2ccc(F)cc2)sc2nc(-c3ccc(Cl)cc3)nn12,-1,-1
CS(=O)(=O)/C(C#N)=C/c1ccc(-c2ccc(Cl)c(Cl)c2)o1,10,4
Cc1cccc2[nH]c(CNC(=O)C(c3cccnc3)N3CCCC3)nc12 (centres undefined),-1,-8
COc1ccc(C(C2Sc3nc(C)nn3C2=O)N2CC(C)CC(C)C2)cc1 (centres undefined),6,1
OCCN(CCO)c1ncnc2c1sc1nc(N3CCOCC3)c3c(c12)CCCC3,-3,-4
CCN1CCN(C(=O)c2ccc(CSc3nnc(-c4cccnc4)n3-c3cccc(C)c3)cc2)CC1,3,13
COc1ccc(OC)c(CCNC(=O)c2cccc(N3C(=O)C(C)CS3(=O)=O)c2)c1 (centres undefined),-10,-12
Cn1c(=O)oc2ccc(NC(=O)NCC3(c4ccccc4)CC3)cc21,3,1
COc1ccc(-c2[nH]ncc2CN(C)Cc2nc3ccccc3o2)c(OC)c1,4,-3
COc1cccc(C(=O)NCC2CCCN(Cc3ccc(C)s3)C2)c1OC (centres undefined),-8,-8
COc1ccc(-c2nnc3ccc(-c4ccc(N5CCOCC5)cc4)cn23)cc1OC,7,-4
Cc1ccn2c(NC(C)(C)CC(C)(C)C)c(/C=C/c3ccccc3)nc2c1,5,17
O=C(CSc1nc(=O)n2cc(Cl)ccc2n1)Nc1ccc(F)cc1,6,5
O=C(Nc1n[nH]c(=S)s1)c1cc2nc(-c3cccs3)cc(C(F)(F)F)n2n1,-11,-21
Cc1ccccc1CSc1ncccc1C(=O)N1CCN(c2ccc(F)cc2)CC1,3,2
CCC(CC)CNC(=O)c1cc(N(C)C2CCCCC2)nc2ccccc12,6,4

# Already shown: 16 of the compounds above.
SMILES,NPYLR7 agonist,NPYLR7 agonist max-min
CC(NCCN(C)C)C(=O)C12CC3CC(CC(C3)C1)C2 (centres undefined),21,10
Cc1c(CCNS(=O)(=O)c2ccc(F)cc2)sc2nc(-c3ccc(Cl)cc3)nn12,-1,-1
CS(=O)(=O)/C(C#N)=C/c1ccc(-c2ccc(Cl)c(Cl)c2)o1,10,4
Cc1cccc2[nH]c(CNC(=O)C(c3cccnc3)N3CCCC3)nc12 (centres undefined),-1,-8
COc1ccc(C(C2Sc3nc(C)nn3C2=O)N2CC(C)CC(C)C2)cc1 (centres undefined),6,1
OCCN(CCO)c1ncnc2c1sc1nc(N3CCOCC3)c3c(c12)CCCC3,-3,-4
CCN1CCN(C(=O)c2ccc(CSc3nnc(-c4cccnc4)n3-c3cccc(C)c3)cc2)CC1,3,13
COc1ccc(OC)c(CCNC(=O)c2cccc(N3C(=O)C(C)CS3(=O)=O)c2)c1 (centres undefined),-10,-12
Cn1c(=O)oc2ccc(NC(=O)NCC3(c4ccccc4)CC3)cc21,3,1
COc1ccc(-c2[nH]ncc2CN(C)Cc2nc3ccccc3o2)c(OC)c1,4,-3
COc1cccc(C(=O)NCC2CCCN(Cc3ccc(C)s3)C2)c1OC (centres undefined),-8,-8
COc1ccc(-c2nnc3ccc(-c4ccc(N5CCOCC5)cc4)cn23)cc1OC,7,-4
Cc1ccn2c(NC(C)(C)CC(C)(C)C)c(/C=C/c3ccccc3)nc2c1,5,17
O=C(CSc1nc(=O)n2cc(Cl)ccc2n1)Nc1ccc(F)cc1,6,5
O=C(Nc1n[nH]c(=S)s1)c1cc2nc(-c3cccs3)cc(C(F)(F)F)n2n1,-11,-21
Cc1ccccc1CSc1ncccc1C(=O)N1CCN(c2ccc(F)cc2)CC1,3,2

# Later entries.
SMILES,NPYLR7 agonist,NPYLR7 agonist max-min
CCOC(=O)c1ccc2c(c1)nc(SCc1cccc(Cl)c1F)n2Cc1ccccn1,-7,-8
O=C(O)CN1C(=O)C2C3CC(C(Br)C3Br)C2C1=O (centres undefined),18,10
CCc1nc2c(OCCc3cccc(OC)c3)cccn2c1N(C)C(=O)c1cccs1,36,15
CCOc1ccc(N2C(=O)c3ccccc3NC2c2ccco2)cc1 (centres undefined),0,-2
CCN(CC)CCN1C(=O)c2ccccc2NC1c1ccc2c(c1)OCO2 (centres undefined),-9,-16
O=C1CN(c2nc3nonc3nc2N2CCOCC2)CCN1C1CCCCC1,9,3
CC(=O)N1CCc2c(sc(NC(=O)CCSc3ccccc3)c2-c2nc3ccccc3s2)C1,4,-1
Cc1nc(SCc2ccc(C(=O)O)cc2)nc(N2CCN(c3cccc(C(F)(F)F)c3)CC2)c1C,8,12
COc1ccc(-c2cc(C(=O)N3CCN(C/C=C/c4ccccc4)CC3)nc3c(-c4ccccc4)c(C)nn23)cc1,-3&4,2&18
Cc1ccc(CSc2nc(=O)n3cccc(C)c3n2)cc1,6,1
CCc1nnc(COC(=O)c2cc(C(C)(C)C)c(O)c(C(C)(C)C)c2)o1,9,5
CC(=O)c1cc(CN2CCCC(C(=O)Nc3ccc(-c4cscn4)cc3)C2)cs1 (centres undefined),1,0
CC(c1ccccc1)N1CCN(S(=O)(=O)c2c(Cl)cccc2Cl)CC1 (centres undefined),3,2
C=CCN1CC(C(=O)Nc2cccc(C(=O)NC(C)(C)C)c2C)CCC1=O (centres undefined),5,-7
CCOC(=O)N1CCN(c2nc3c(c(=O)[nH]c(=O)n3C)n2Cc2ccccc2Cl)CC1,0,11
COC(=O)Cc1cc(=O)n2c(nc3ccccc32)[nH]1,10,2
Cc1ccc(-c2nc3cc(Cl)ccc3o2)cc1NC(=O)c1cccc([N+](=O)[O-])c1,3,-3
CNc1ncccc1CN(C)CCOc1cc(C)ccc1C,0,7
O=C(CCCn1cnc2ccccc2c1=O)N1CCCCC1CCO (centres undefined),-4,-6
COc1cc(NC(=O)N2CCC(Cc3ccc(C(C)(C)C)cc3)CC2)cc(OC)c1OC,1,6
Cc1cccc(NC(=O)CSc2nnc(CCC(=O)O)c(=O)[nH]2)c1C,13,8
Cc1ccc(NCc2ccc3[nH]c(-c4ccc(F)cc4)c(C)c3c2)nn1,-2,-5
COc1ccc(CCN(Cc2ccc(C)o2)C(=O)CN(CC2CCCO2)C(=O)Cc2ccccc2)cc1OC (centres undefined),5,6
CC1(C)O[C@@H]2CC3C4C[C@H](F)C5=CC(=O)C=CC5(C)C4C(O)CC3(C)[C@]2(C(=O)CO)O1 (some centres undefined),-10,-15
Cc1ccc2c(C)cc(Sc3ccc(C)c(C)c3)nc2c1,-4,-6
O=C(CCS(=O)(=O)c1ccccc1)N(Cc1ccccn1)c1nc2c(F)cccc2s1,-6,-2
CCc1ccc(-c2ccc(NC3CCCCC3)nn2)cc1S(N)(=O)=O,-14,-17
O=C1c2cccc([N+](=O)[O-])c2C(=O)N1CN1CCCCC1,-1,0
CCOC(=O)c1ccc(OC2CC3CCC(C2)N3C(=O)c2ccc(CSc3nc4cccc(Cl)c4o3)cc2)cc1 (centres undefined),17,14
CC1Oc2ccc(C#N)cc2N(Cc2cccc(F)c2)C1=O (centres undefined),5,6
CC(NCc1nc(N)nc(N(C)C)n1)c1ccc(Cl)cc1Cl (centres undefined),10,5
COc1cc(OC)cc(C2SCCN2C(=O)Nc2ccc(Cl)cc2Cl)c1 (centres undefined),2,4
Cc1ccc(S(=O)(=O)N2CCN(Cn3ncc4ccccc4c3=O)CC2)c(C)c1,-2,-3
CC(C)c1ccc(-n2c(Cn3cncn3)n[nH]c2=S)cc1,-5,-6
CC(=O)c1cccc(C2=NOC(C)C(=O)N2Cc2c(C)noc2C)c1 (centres undefined),17,14
COC(=O)CC1=C(C(=O)OC)C(c2cccc([N+](=O)[O-])c2)C(C(=O)OC)=C(C)N1 (centres undefined),0,-2
O=C(COc1ccc(C2SCCS2)cc1)Nc1ccccn1,2,0
CCOC(=O)CCC(=O)Nc1cccc(C2SCC(=O)N2c2cccc(OC)c2)c1 (centres undefined),26,21
Cc1nc(N2CCN(C)CC2)ncc1-c1cc(=O)[nH]c(Nc2cccc(C(F)(F)F)c2)n1,-1,0
COc1ccc(NC(=O)[C@@H](C)N2Cc3ccc(NCC(C)C)nc3C2=O)cc1,5,2
Nc1nc(SCC(=O)Nc2ccccc2F)[nH]c(=O)c1NC(=O)c1ccc(F)c(F)c1,0,-1
Cc1ccc(CN(Cc2ccncc2)Cc2ccc(CO)o2)s1,12,3
CN(C)CCSc1ccc(NC(=O)C2CC2)nn1,-2,-2
C=C(C)Cn1c(SCC(=O)OCC)nc2c1c(=O)[nH]c(=O)n2C,3,-1
Cc1cc(S(=O)(=O)NCCN2CCOCC2)c(C)s1,0,-1
Cc1ccccc1OCC(O)CN(CCc1nc(-c2cccc(Cl)c2)no1)Cc1ccccc1 (centres undefined),10,10
O=C(Cn1cccn1)NC1CC(=O)N(C2CCCCCC2)C1 (centres undefined),0,-2
CSCc1cc(F)ccc1CN,5,-2
Cc1cc(C(=O)NC(C)c2ncn[nH]2)c(NC(=O)C(C)(C)C)s1 (centres undefined),-1,-6
C=CCSC(C)C(=O)N1CCOc2c(O)cc(-c3cccnc3)cc2C1 (centres undefined),6,-1
COc1ccc(C(CCN(C)C)Oc2ccc(CC(=O)NN3CCCC3)cc2)cc1 (centres undefined),4,2
O=S(=O)(Nc1ccc(OCC(F)(F)F)cc1)c1ccc(F)cc1F,-10,-3
CCc1cccc2c(C(CC(=O)N3CCC4(CC3)OCCO4)c3ccc(OC)c(OC)c3)c[nH]c12 (centres undefined),0,3
CC(C)c1nn(C)c2sc(C(=O)N3CCS(=O)(=O)CC3)cc12,9,5
Cc1nc(Cl)cc(NCCS(=O)Cc2ccccc2)n1 (centres undefined),11,10
C=CC(C)(O)CC1[C@@]2(C)CCCC(C)(C)C2CC[C@]1(C)O (some centres undefined),0,-2
CCCCCCc1ccc(C(=O)N(Cc2ccc(OC)c(OS(C)(=O)=O)c2)CC(C)C)cc1,-3,12
COc1cc(-c2[nH]ncc2CN2CCCCC2c2nccs2)cc(OC)c1OC (centres undefined),6,4
CC(C)CN1CCN(c2nc3c(c(=O)[nH]c(=O)n3C)n2Cc2ccc(F)cc2)CC1,4,1
O=C(Cn1c2[n+](c3ccc(C(F)(F)F)cc31)CCCCC2)c1ccc2c(c1)OCCO2,15,26
# The listing continues:
SMILES,NPYLR7 agonist,NPYLR7 agonist max-min
Cc1ccc(C)c(Cn2cnc3c(nnn3-c3cccc(F)c3)c2=O)c1,-1,-3
CCOc1ccc(C(NC23CN4CN(CN(C4)C2)C3)P(=O)(c2ccccc2)c2ccccc2)cc1 (centres undefined),-2,-6
COc1cccc(Cl)c1-c1cc(C(=O)N2CCN(C)CC2)ccn1,8,3
O=C(NCc1ccccn1)c1cc(N2CCN(c3cccc(C(F)(F)F)c3)CC2)nc2ccccc12,29,34
C=CCN=c1scc(-c2cccc(Cl)c2)n1N=Cc1ccc2c(c1)OCO2,4,2
c1ccc(C[n+]2cc(-c3ccccc3)n3c2CCC3)cc1,7,11
COc1ccc(N2CCN(CCCNCc3c(C)nn(C)c3C)CC2)cc1,8,0
COc1ccc(-c2cc3c(=O)n(CC(=O)NCc4ccccc4Cl)ccn3n2)cc1,4,3
CCCCn1c(=N)n(CCO)c2ccccc21,2,7
